PPARg SRC3 recr: agonists of human PPARgamma SRC-3 coactivator recruitment. 200,000 tested, 0.26% active. P37231. activation, % at 8 µM. biochemical PPARgamma/SRC-3 coactivator recruitment assay; in the data active means activation above about 23%;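 further: 0% = DMSO and 100% = reference agonist; some compounds past the cut are filed as inactive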
Target sequence (P37231 whole entry, looked up): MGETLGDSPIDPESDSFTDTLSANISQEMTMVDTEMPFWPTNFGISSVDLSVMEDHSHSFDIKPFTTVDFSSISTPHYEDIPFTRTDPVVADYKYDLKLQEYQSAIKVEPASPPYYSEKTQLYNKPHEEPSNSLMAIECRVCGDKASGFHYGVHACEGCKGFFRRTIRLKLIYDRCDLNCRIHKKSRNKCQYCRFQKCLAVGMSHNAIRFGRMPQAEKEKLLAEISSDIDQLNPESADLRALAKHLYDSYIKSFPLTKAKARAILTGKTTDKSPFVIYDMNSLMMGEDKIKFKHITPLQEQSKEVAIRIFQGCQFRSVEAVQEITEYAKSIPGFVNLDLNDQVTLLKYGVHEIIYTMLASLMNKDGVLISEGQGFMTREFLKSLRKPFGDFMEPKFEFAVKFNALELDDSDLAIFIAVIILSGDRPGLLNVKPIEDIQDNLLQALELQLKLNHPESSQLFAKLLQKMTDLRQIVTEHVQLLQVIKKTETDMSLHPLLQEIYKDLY
PPARg SRC2 recr: promotes SRC-2 coactivator recruitment by human PPARgamma; P37231; activation, % at 8 µM; 200,000 tested, 0.34% active; PPARgamma LBD-SRC-2 recruitment, biochemical; AID 1032; in the data active means activation above about 22%;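 further: 0% = vehicle and 100% = reference agonist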
PPARg SRC1 recr: agonists of human PPARgamma SRC-1 coactivator recruitment; P37231; PPARgamma-SRC-1 coactivator recruitment biochemical assay; activation, % at 8 µM; 200,000 tested, 0.41% active; AID 631; in the data active means activation above about 19%;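 further: 0% = DMSO and 100% = reference agonist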
G6PDH counter: inhibits Leuconostoc G6PDH, flagging false hits in G6PDH-based assays. Purified L. mesenteroides G6PDH, diaphorase/resazurin coupled fluorescence, 45 min. inhibition, % at 5 µM. 200,000 tested, 0.12% active. AID 1020; in the data active means inhibition above about 50%
ROMK mod: modulates human ROMK potassium channel activity. P48048. AID 1918. B-score at 10 µM. Tet-inducible ROMK, thallium flux fluorescence; actives lie on both sides. 130,000 tested, 2% active;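 active means signal ratio slope over the read window, or its plate-corrected B-score, at least 3 SD from the plate mean, either direction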;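 further: B-score of the F/F0 ratio slope over 7 to 12 s after thallium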
Target sequence (P48048 whole entry, looked up): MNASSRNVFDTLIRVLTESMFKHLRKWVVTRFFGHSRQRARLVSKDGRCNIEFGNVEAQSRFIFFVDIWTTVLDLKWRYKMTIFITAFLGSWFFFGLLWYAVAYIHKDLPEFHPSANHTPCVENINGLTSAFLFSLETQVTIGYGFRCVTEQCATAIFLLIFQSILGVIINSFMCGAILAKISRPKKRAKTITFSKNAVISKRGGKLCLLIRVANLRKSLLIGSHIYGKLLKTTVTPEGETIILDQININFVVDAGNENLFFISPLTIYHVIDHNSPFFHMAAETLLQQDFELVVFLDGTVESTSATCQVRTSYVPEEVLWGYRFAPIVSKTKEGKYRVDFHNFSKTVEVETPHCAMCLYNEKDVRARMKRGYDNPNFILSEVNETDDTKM
S1P3 antag: S1P3 (human) receptor antagonism; AID 485; CHO S1P3 NFAT-BLA reporter, FRET fluorescence, antagonist mode; 170,000 tested, 0.27% active; Q99500; inhibition, % at 4.98 µM;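 active means inhibition above the plate cutoff, the mean inhibition of test wells on that plate plus 3 SD, cut at about 28% in these data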;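 further: cells challenged with S1P at its EC80 of 0.8 µM; blue over green emission ratio from cleaved BLA substrate after 4 h stimulation; 0% = S1P-stimulated wells and 100% = unstimulated DMSO-only wells; some compounds past the cut are filed as inactive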
TR-FRET SRC-2 ct: flags TR-FRET format artefacts in PPARgamma SRC-2 recruitment agonist screen; TR-FRET artefact counter-screen; active compounds read high; TR-FRET ratio at 8 µM; 200,000 tested, 0.4% active; AID 1049; in the data active means TR-FRET ratio above about 2000; further: inactives centre near 1500
Diaphorase inh: inhibits diaphorase or chemically oxidizes, flagging diaphorase assay artifacts; diaphorase resazurin-to-resorufin fluorescence, NADH, 16 min; bacterial (C. kluyveri) enzyme, not human; inhibition, % at 20 µM; 190,000 tested, 0.69% active;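 active means primary screen inhibition at 20 µM above a set limit, cut at about 50% in these data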;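 further: plate controls were DMSO with full reaction for no effect and wells lacking NADH for full effect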
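System: Diaphorase enzyme from Clostridium kluyveri | Amount: Enzyme working solution with 0.14 U/mL diaphorase | Benchmarks: No-NADH positive control and DMSO neutral control | Signal: Fluorescence of resorufin formed from resazurin, Ex 544/Em 590 nm | Schedule: 16-min room-temperature incubation before reading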
An asterisk follows results filed as active; x = no result given. Only part of the results is shown (hit frequency here may not be typical).

Short keys: A = PPARg SRC3 recr; B = PPARg SRC2 recr; C = PPARg SRC1 recr; D = G6PDH counter; E = ROMK mod; F = S1P3 antag; G = TR-FRET SRC-2 ct; H = Diaphorase inh
CCn1c(C)[n+](CCCS(=O)(=O)[O-])c2cc(Cl)c(Cl)cc21
  A: 2.5; B: 1.9; C: 0.6; D: 5.5; E: 0.548; F: x; G: 1369; H: 9.2

COc1ccc(OC)c(N2CC(O)=C(c3nc4ccccc4s3)C2=N)c1
  A: 5.1; B: -5.0; C: 5.8; D: 7.6; E: x; F: x; G: 1435; H: -12.4

Cc1sc2nc(SCc3ccccc3)n(Cc3ccco3)c(=O)c2c1C
  A: 0.4; B: -7.5; C: -0.8; D: -0.5; E: x; F: x; G: 1465; H: 21.0

COc1cc(Nc2nc(-c3ccccc3)c3cc(C)ccc3n2)cc(OC)c1OC
  A: 7.5; B: -4.0; C: 5.3; D: 20.0; E: 0.0333; F: x; G: 1564; H: 26.8

Cc1c(OCC(=O)OC(C)C)ccc2c3c(c(=O)oc12)CCC3
  A: -5.4; B: 2.6; C: -1.8; D: -24.0; E: x; F: -4.3; G: 1579; H: 6.4

CCCS(=O)(=O)N1CCCC(C(=O)NCCN(Cc2ccccc2)C(C)C)C1 (stereo unspecified)
  A: 1.0; B: 6.2; C: -6.0; D: 6.7; E: x; F: 5.3; G: 1689; H: 19.0

O=C(Nc1ccccn1)C(NS(=O)(=O)c1cccc2nsnc12)c1ccccc1 (stereo unspecified)
  A: -1.0; B: -0.7; C: 2.4; D: 4.4; E: -3.05; F: 20.9; G: 1484; H: 21.8

CCOC(=O)C1=C(c2ccccc2)NC(=S)NC1c1cc([N+](=O)[O-])ccc1OC (stereo unspecified)
  A: 5.6; B: 4.5; C: 4.8; D: 2.7; E: x; F: x; G: 1515; H: 18.2

Cc1ccc(-c2nc3ccccc3[nH]2)cc1NC(=O)c1ccc2c(c1)OCO2
  A: 4.7; B: 0.1; C: -7.8; D: -4.6; E: 0.509; F: x; G: 1491; H: 8.0

O=C(/C=C/c1ccccc1)N1CCN(Cc2nc3ccccc3c(=O)[nH]2)CC1
  A: -1.5; B: 5.5; C: -2.4; D: 12.8; E: x; F: x; G: 1320; H: 3.3

The closing four compounds of the part above come first, to join the parts.
Short keys: A = PPARg SRC3 recr; B = PPARg SRC2 recr; C = PPARg SRC1 recr; D = G6PDH counter; E = ROMK mod; F = S1P3 antag; G = TR-FRET SRC-2 ct; H = Diaphorase inh
O=C(Nc1ccccn1)C(NS(=O)(=O)c1cccc2nsnc12)c1ccccc1 (stereo unspecified)
  A: -1.0; B: -0.7; C: 2.4; D: 4.4; E: -3.05; F: 20.9; G: 1484; H: 21.8

CCOC(=O)C1=C(c2ccccc2)NC(=S)NC1c1cc([N+](=O)[O-])ccc1OC (stereo unspecified)
  A: 5.6; B: 4.5; C: 4.8; D: 2.7; E: x; F: x; G: 1515; H: 18.2

Cc1ccc(-c2nc3ccccc3[nH]2)cc1NC(=O)c1ccc2c(c1)OCO2
  A: 4.7; B: 0.1; C: -7.8; D: -4.6; E: 0.509; F: x; G: 1491; H: 8.0

O=C(/C=C/c1ccccc1)N1CCN(Cc2nc3ccccc3c(=O)[nH]2)CC1
  A: -1.5; B: 5.5; C: -2.4; D: 12.8; E: x; F: x; G: 1320; H: 3.3

CCOC(=O)c1[nH]c(C)c(CN(CCc2ccccc2)C(=O)CCC(=O)O)c1C
  A: -0.4; B: 2.9; C: 4.3; D: 4.1; E: 0.84; F: 0.5; G: 1445; H: 5.1

COc1ccc(NC(=O)CN2C(=O)c3cccc4cccc2c34)c(OC)c1
  A: 1.7; B: -1.2; C: 2.3; D: 2.6; E: x; F: x; G: 1581; H: 14.5

O=C1c2ccccc2C(=O)N1Nc1ccccc1
  A: -6.5; B: -8.1; C: -4.9; D: 8.7; E: x; F: x; G: 1440; H: 3.1

N/C(Cc1ccc([N+](=O)[O-])cc1)=N\OC(=O)COc1cccc2ccccc12
  A: -6.0; B: -8.0; C: 2.4; D: 10.1; E: -0.162; F: x; G: 1478; H: 24.1

CCOC(=O)c1sc(C)c2c(=O)n(Cc3ccc(Cl)cc3)c(C)nc12
  A: 9.1; B: 6.6; C: 8.0; D: 10.1; E: x; F: x; G: 1554; H: 19.8

O=C1c2ccccc2CCCC12N=NCC2c1cccc2ccccc12 (stereo unspecified)
  A: -1.0; B: 6.5; C: 8.8; D: -2.6; E: x; F: x; G: 1564; H: 13.9

O=C(Nc1cc(C(F)(F)F)cc(C(F)(F)F)c1)c1ccc(Cn2cc(C(F)(F)F)ccc2=O)cc1
  A: 7.5; B: 0.7; C: 1.9; D: 4.4; E: x; F: x; G: 1295; H: 23.1

CC(C)C1=Nc2cccc3cccc(c23)N1
  A: 21.4; B: 15.4; C: 16.6; D: 12.2; E: x; F: x; G: 1651; H: 31.5

Cc1ccc(NC(=O)CN(Cc2ccccc2)S(C)(=O)=O)cc1C
  A: 16.4; B: -1.2; C: 11.5; D: 1.7; E: x; F: x; G: 1465; H: 15.4

O=S1(=O)CCN2C=Nc3sc4c(c3C2=N1)CCCC4
  A: -6.2; B: 0.4; C: 2.9; D: 13.1; E: x; F: -25.8; G: 1531; H: 11.3

CCCCOc1ncnc2c1[nH]c1ccc(OC)cc12
  A: 13.3; B: 9.9; C: 5.3; D: 2.0; E: x; F: x; G: 1646; H: -2.6

Cc1[nH]nc(-c2ccc(OCc3cnn(-c4ccccc4)c3)cc2O)c1Oc1ccc(F)cc1
  A: 10.8; B: 8.4; C: 6.4; D: 0.7; E: x; F: x; G: 1726; H: 20.0

CC(=O)N1CC(=O)N(OCc2ccccc2)C1c1ccc(Cl)cc1Cl (stereo unspecified)
  A: -4.0; B: 9.2; C: -5.9; D: 13.8; E: x; F: x; G: 1663; H: 6.0

COc1ccc(C2=NN(C)C(=NCc3ccccc3)SC2)cc1
  A: 16.6; B: 0.9; C: 3.7; D: 0.2; E: x; F: x; G: 1485; H: 9.5

O=C(Oc1c(Br)cc(C(=S)N2CCOCC2)cc1Br)c1ccc(Cl)cc1
  A: -7.9; B: -4.1; C: -2.3; D: 4.6; E: -0.0071; F: x; G: 1362; H: 4.1

COc1ccc(CCNC(=O)CCCCCN2C(=O)c3ccccc3C2=O)cc1
  A: -2.0; B: 2.1; C: -1.8; D: 10.8; E: x; F: x; G: 1593; H: 15.6

COc1ccc(C(=O)NCC2OCCc3ccccc32)cc1 (stereo unspecified)
  A: -2.9; B: 4.4; C: -4.8; D: 10.5; E: x; F: x; G: 1548; H: 3.0

CC(=O)c1cccc(NC(=S)NC(=O)CC(C)(C)C)c1
  A: -7.9; B: -8.1; C: -2.6; D: 2.0; E: x; F: x; G: 1582; H: 9.0

Cc1nc(-c2cccnc2)sc1C(=O)Nc1ccc(Cl)cc1
  A: 8.8; B: 8.5; C: 3.4; D: 3.2; E: x; F: x; G: 1734; H: 1.9

COc1ccc(C(=O)Nc2cc(OCc3ccccc3)c(Cl)cc2Cl)cc1
  A: 6.8; B: 10.1; C: 8.3; D: 8.9; E: x; F: x; G: 1724; H: 0.5

CCc1ccc(C(=O)c2oc3nc(C)cc(C)c3c2N)cc1
  A: 9.5; B: 2.8; C: 7.0; D: 3.6; E: x; F: x; G: 1546; H: 14.4

CC(C)c1ccc(-c2nn(-c3ccccc3)cc2C2C(C#N)=C(N)OC3=C2C(=O)CC(C)(C)C3)cc1 (stereo unspecified)
  A: -2.0; B: -3.4; C: 5.5; D: 6.0; E: x; F: x; G: 1535; H: 24.9

CCOc1ccccc1NC(=O)Nc1c(C)n(-c2ccccc2)c(=O)n1C
  A: 1.7; B: -9.1; C: 4.7; D: 8.1; E: x; F: x; G: 1575; H: 3.3

COC(=O)C1C2CCC(C2)C1C(=O)OCC(=O)c1ccccc1 (stereo unspecified)
  A: -1.2; B: 3.2; C: 1.4; D: 3.3; E: -0.16; F: x; G: 1559; H: 9.8

O=C(N/N=C/c1cccc(Oc2ccc([N+](=O)[O-])cc2[N+](=O)[O-])c1)c1cncc(Br)c1
  A: -2.4; B: 2.1; C: 5.9; D: 12.2; E: x; F: x; G: 1493; H: 45.0

CSc1nsc(SC)c1NC(=O)OCC1CCCO1 (stereo unspecified)
  A: 13.7; B: 10.1; C: 7.2; D: 0.1; E: x; F: -18.8; G: 1760; H: 11.7

One compound at a time, from the list above. Order of values: PPARg SRC3 recr | PPARg SRC2 recr | PPARg SRC1 recr | G6PDH counter | ROMK mod | S1P3 antag | TR-FRET SRC-2 ct | Diaphorase inh
CC(C)c1ccc(-c2nn(-c3ccccc3)cc2C2C(C#N)=C(N)OC3=C2C(=O)CC(C)(C)C3)cc1 (stereo unspecified) across the screens: -2.0 | -3.4 | 5.5 | 6.0 | x | x | 1535 | 24.9
O=C(N/N=C/c1cccc(Oc2ccc([N+](=O)[O-])cc2[N+](=O)[O-])c1)c1cncc(Br)c1 across the screens: -2.4 | 2.1 | 5.9 | 12.2 | x | x | 1493 | 45.0
COc1ccc(OC)c(N2CC(O)=C(c3nc4ccccc4s3)C2=N)c1 across the screens: 5.1 | -5.0 | 5.8 | 7.6 | x | x | 1435 | -12.4
O=S1(=O)CCN2C=Nc3sc4c(c3C2=N1)CCCC4 across the screens: -6.2 | 0.4 | 2.9 | 13.1 | x | -25.8 | 1531 | 11.3
CCn1c(C)[n+](CCCS(=O)(=O)[O-])c2cc(Cl)c(Cl)cc21 across the screens: 2.5 | 1.9 | 0.6 | 5.5 | 0.548 | x | 1369 | 9.2

Assay outcomes deposited in PubChem BioAssay by several laboratories.
